Assay outcomes as filed in PubChem BioAssay.
VDR inhibitor = vitamin D3 receptor (human) inhibition. VDR-SRC2-3 peptide fluorescence polarization, 2 h. Potency, µM, inactives show max response, negative = inhibition, usual class: inhibitors. AID 504847. 400,000 tested, 0.93% active; active means well fitted inhibition curve with a large enough effect; inconclusive means small, poorly fitted or top-dose-only effect, or another doubt; inactive means no such curve, though single readings can be large or run the other way; further: series mostly up to about 120 µM
Target sequence (P11473 whole entry, looked up): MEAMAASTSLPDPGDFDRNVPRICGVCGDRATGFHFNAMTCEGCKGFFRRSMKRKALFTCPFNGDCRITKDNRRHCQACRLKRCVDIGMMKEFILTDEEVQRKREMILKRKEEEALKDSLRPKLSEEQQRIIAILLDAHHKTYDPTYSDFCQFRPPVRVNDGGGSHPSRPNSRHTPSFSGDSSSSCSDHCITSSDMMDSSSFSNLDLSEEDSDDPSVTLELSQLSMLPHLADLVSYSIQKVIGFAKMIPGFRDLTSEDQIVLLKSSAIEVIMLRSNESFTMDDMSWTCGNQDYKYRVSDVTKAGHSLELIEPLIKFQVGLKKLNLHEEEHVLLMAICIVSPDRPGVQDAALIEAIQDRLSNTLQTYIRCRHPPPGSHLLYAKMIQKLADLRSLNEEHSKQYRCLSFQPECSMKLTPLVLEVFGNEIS
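Signal is fluorescence polarization, reporting how far test compounds block the interaction of VDR with the SRC2-3 coregulator peptide after a 2 h room-temperature incubation.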
* = called active by the depositor; & = joins results of further samples; [ ] = dose if it differs, or a comment. On the % scale 0 is the no-effect control and ±100 the full control effect; potency means the concentration at half of the fitted maximal effect. An excerpt (hit frequency here may not be typical).

What do the screens show for `COc1ccc(/C=C/C(=O)N[C@@H](C)C(=O)O)cc1`?
VDR inhibitor: -17%

How did CCOC(=O)C1CCCN(C(=O)/C(=C/c2ccco2)NC(=O)c2ccccc2)C1 (configuration not stated) do in these assays?
VDR inhibitor: -15%

How did O=C(CCCCCN1C(=O)CCC1=O)Nc1ncn[nH]1 do in these assays?
VDR inhibitor: 9%

What do the screens show for `O=[N+]([O-])c1ccc(N2CCN(Cc3ccncc3)CC2)cc1`?
VDR inhibitor: -22%

Results for O=C(c1cc([N+](=O)[O-])ccc1N1CCOCC1)N1CCN(c2ccc([N+](=O)[O-])cc2)CC1 ?
VDR inhibitor: -4%

Results for CCOc1ccc(C(=O)N2CCC3(CC2)NCCc2[nH]cnc23)cc1OCC ?
VDR inhibitor: 2%

How did O=C(Nc1ccccn1)c1ccc(C(=O)c2ccccc2)cc1 do in these assays?
VDR inhibitor: 6%

Results for Cc1ccc(OCCn2ncc3ccccc3c2=O)c(C)c1 ?
VDR inhibitor: 5%

How did CC(=O)c1ccc(S(=O)(=O)Nc2ccc(S(=O)(=O)N3CCCCC3)cc2)cc1 do in these assays?
VDR inhibitor: 23%

How did COc1ccc(C(CNC(=O)c2ccc(N3CCCC3=O)cc2)N2CCCC2)cc1 (configuration not stated) do in these assays?
VDR inhibitor: -3%

Results for Cc1ccc(C(=O)N2CCc3ccccc32)cc1C ?
VDR inhibitor: -11%

Results for COc1ccc(-n2c(Cc3cccn3C)nnc2SCC(=O)Nc2ccccc2C)cc1 ?
VDR inhibitor: -5%

What do the screens show for `COc1ccccc1N1CCN(C(=O)CN(c2cc(C)cc(C)c2)S(C)(=O)=O)CC1`?
VDR inhibitor: 4%

Results for CCOC(=O)N1CCN(CC(=O)Nc2ccc([N+](=O)[O-])cc2C(=O)Nc2ccccc2F)CC1 ?
VDR inhibitor: -5%

How did COCCCn1c(SCC(=O)NC2CCCC2)nnc1-c1cccs1 do in these assays?
VDR inhibitor: 14%

How did CC12CCC(C(=O)NCCN3CCCCC3)(CC1=O)C2(C)C (configuration not stated) do in these assays?
VDR inhibitor: 15%

Results for Oc1c(Cl)cc(Cl)cc1C=Nc1ccc(Br)cc1 ?
VDR inhibitor: 2%

What do the screens show for `Cc1ccc(CNC(=O)c2ccc(CS(=O)Cc3cccc(Cl)c3)o2)cc1` (configuration not stated)?
VDR inhibitor: -7%&12%

Results for CCNc1ncc2nc(-c3cccc(C#N)c3)c(=O)n(CCC#N)c2n1 ?
VDR inhibitor: 5%

How did N#CCCn1c(=O)cnc2cnc(OCc3ccccc3)nc21 do in these assays?
VDR inhibitor: -9%

What do the screens show for `COc1ccc(NC(=O)NC2CCCCCCC2)cc1OC`?
VDR inhibitor: -25%

How did Cc1ccc(OCn2c(=O)sc3ccccc32)cc1 do in these assays?
VDR inhibitor: 2%

Results for Cc1ccc(NC(=O)CC(NC(=O)c2ccccc2Cl)c2ccccc2)nc1 (configuration not stated) ?
VDR inhibitor: -1%

What do the screens show for `NC(=NC1C2CC3CC(C2)CC1C3)Nc1ccc(I)cc1` (configuration not stated)?
VDR inhibitor: 7%&12%&-4%

Results for Cc1ccc([N+](=O)[O-])cc1S(=O)(=O)Nc1cccc(S(=O)(=O)Nc2ccccc2C(=O)O)c1 ?
VDR inhibitor: -11%

How did Cn1nc(C(C)(C)C)c(NC(=O)c2ccc(F)cc2)c1C(C)(C)C do in these assays?
VDR inhibitor: 2%

What do the screens show for `CC(=O)Cn1ncc(N2CCCCC2)c(Cl)c1=O`?
VDR inhibitor: -10%

How did CC(Oc1ccc(Cl)cc1)C(=O)N(C)CC(=O)Nc1ccc(N2CCOCC2)cc1 (configuration not stated) do in these assays?
VDR inhibitor: 0%

Results for CC1CN(C(=O)c2cc3c(=O)n4ccccc4nc3n2C)CC(C)O1 (configuration not stated) ?
VDR inhibitor: -12%

Results for COc1cc(/C=N/N=C2/NC(=O)C(Cc3ccccc3)S2)ccc1O (configuration not stated) ?
VDR inhibitor: 2%

Results for C=CCn1c(SC(CCO)C(=O)NCc2ccco2)nc2sc3c(c2c1=O)CCC3 (configuration not stated) ?
VDR inhibitor: -7%

What do the screens show for `CCSC1=N/C(=C\c2ccc(-c3ccccc3[N+](=O)[O-])o2)C(=O)S1`?
VDR inhibitor: -12%

Results for COc1ccc(OCc2cc(C(=O)N3CCN(CC4CC4)CC3)no2)c(Cl)c1 ?
VDR inhibitor: 11%

How did COc1ccc(C(=O)N2CCN(c3ccccc3)CC2)cc1S(=O)(=O)N1CCOCC1 do in these assays?
VDR inhibitor: -3%

What do the screens show for `CC(C)N(C(=O)Cn1c(-c2ccccc2Cl)nc2ccccc21)c1ccccc1`?
VDR inhibitor: -4%

How did COc1ccc(CNC(=O)Cn2nnc(-c3ccc(C(F)(F)F)cc3)n2)cc1 do in these assays?
VDR inhibitor: 8%

Results for O=C(NNC(=O)c1c(O)c2ccccc2[nH]c1=O)c1ccccc1 ?
VDR inhibitor: 30%[activator]

What do the screens show for `COCCC(=O)N1CCC(Oc2ccc(C(=O)NCCC3=CCCCC3)cc2)CC1`?
VDR inhibitor: 0%

Results for O=c1[nH]n(-c2ccccc2Cl)c(=O)c2ccccc12 ?
VDR inhibitor: 7%

How did CC(/C=N/N1CCN(c2ccccc2)CC1)=C\c1ccccc1 do in these assays?
VDR inhibitor: -4%

What do the screens show for `CC1=CC(=Nc2c(C)n(C)n(-c3ccccc3)c2=O)C=C(C)C1=O`?
VDR inhibitor: -3%

What do the screens show for `CC(/C=N/NC(=O)c1nnn(-c2nonc2N)c1C(C)C)=C\c1ccco1`?
VDR inhibitor: 6%

Results for CC(NC(=O)CSc1nnc(-c2cccnc2)n1N)c1ccccc1 (configuration not stated) ?
VDR inhibitor: -12%

Results for Cc1nn(CCCC(=O)Nc2cc(Oc3ccccc3)cc([N+](=O)[O-])c2)c(C)c1[N+](=O)[O-] ?
VDR inhibitor: -8%

How did CCC1CCC(NC2CCCCNC2=O)CC1 (configuration not stated) do in these assays?
VDR inhibitor: 2%

How did Cc1ccc(CNC(=O)c2ccc(CN3CCOCC3)cc2)cc1 do in these assays?
VDR inhibitor: 6%

What do the screens show for `FC(F)(F)c1cc(CCN2CCNC[C@H]2Cc2cccc3ccccc23)cc(C(F)(F)F)c1`?
VDR inhibitor: 0%

What do the screens show for `CCOC(=O)c1c(NC(N)=O)nc2n1CCC2`?
VDR inhibitor: -3%

How did CC(=O)c1ccc(OCCNS(=O)(=O)c2ccc(-n3cnnn3)c(C)c2)cc1 do in these assays?
VDR inhibitor: -9%

What do the screens show for `Cc1ccc(NC(=O)N(C)c2ccccc2)cc1`?
VDR inhibitor: -7%

How did COc1cccc(CC(=O)OCC(=O)NC(=O)c2ccc(OC(F)F)cc2)c1 do in these assays?
VDR inhibitor: -11%

How did Nc1ccc2nc(-c3ccc(N)c(Cl)c3)[nH]c2c1 do in these assays?
VDR inhibitor: 2%

Results for Cc1[nH]c2ccccc2c1C1(O)C(=O)Nc2ccc(Cl)cc21 (configuration not stated) ?
VDR inhibitor: -17%

Results for COc1ccc(S(=O)(=O)N(CC(=O)NN=C2CCN(C)CC2)c2ccc(C)cc2)cc1OC ?
VDR inhibitor: -7%

Results for COc1ccc(CCN2CC34C=CC(O3)C(C(=O)NCc3ccccc3)C4C2=O)cc1OC (configuration not stated) ?
VDR inhibitor: -5%

Results for CN(C)S(=O)(=O)c1ccc(Cl)c(NC(=O)CN2C(=O)NC3(CCCC3)C2=O)c1 ?
VDR inhibitor: 2%

What do the screens show for `Cc1ccc2nc(NC(=O)CSc3nc(=O)n(CCN(C)C)c4c3CCCC4)sc2c1`?
VDR inhibitor: -8%

What do the screens show for `COCCCNC(=O)CSc1nc2cc3c(cc2c(=O)n1CCCCCC(=O)NCc1ccc2c(c1)OCO2)OCO3`?
VDR inhibitor: 10%

What do the screens show for `CCCCc1ccc(NC(=O)Cn2nnc3sc4c(c3c2=O)CCC(C)C4)cc1` (configuration not stated)?
VDR inhibitor: -15%

Results for CCN(CC(=O)Nc1ccccc1C(F)(F)F)C(=O)CN1C(=O)NC2(CCCC2)C1=O ?
VDR inhibitor: -7%

Results for Cc1ccc(N2NC(C)(c3cccs3)NC2=S)cc1 (configuration not stated) ?
VDR inhibitor: inconclusive

How did CC[C@H]1c2[nH]c3ccccc3c2C[C@@H]2C(=O)N(c3ccc(F)cc3)C(=O)N21 do in these assays?
VDR inhibitor: -4%

What do the screens show for `COc1cc(/C=N/Nc2ccc3ccccc3c2)ccc1OC(=O)c1ccco1`?
VDR inhibitor: 16%

What do the screens show for `Cc1ccc(O)c(C(=O)/C=C/c2ccc3c(c2)OCCCO3)c1`?
VDR inhibitor: inconclusive

What do the screens show for `CCCn1c(SCC(=O)NCCc2ccc(Cl)cc2Cl)n[nH]c1=O`?
VDR inhibitor: -7%

Results for CCCCCc1c(O)c2ccccc2[nH]c1=O ?
VDR inhibitor: -8%

What do the screens show for `CC(=O)c1nc2ccccc2n1CCc1ccccc1`?
VDR inhibitor: -11%

What do the screens show for `O=S(=O)(c1ccc(-c2ccon2)s1)N1CCN(c2ccncc2)CC1`?
VDR inhibitor: 39%[activator]

Results for CCC1CCCCN1C(=O)CSc1nc(-c2ccc(OC)cc2)cc(C(F)(F)F)n1 (configuration not stated) ?
VDR inhibitor: inconclusive

Results for Cc1cc(=O)oc2cc(OCC(=O)OCC(=O)N(CCC#N)c3ccccc3)ccc12 ?
VDR inhibitor: 0%

Results for CCC(=O)Nc1ccc(-c2nnc3c4ccccc4c(C)nn23)cc1 ?
VDR inhibitor: -13%

Results for COc1cc(-c2nc(Cn3nnc(C(=O)Nc4ccc(C)cc4C)c3C)c(C)o2)cc(OC)c1OC ?
VDR inhibitor: -21%

How did O=C(CSC(=S)N1CCOCC1)c1cc(Br)cc(Br)c1O do in these assays?
VDR inhibitor: 12%

Results for COc1cc(NC(=O)c2cnn3c(C)cc(C)nc23)c(OC)cc1Cl ?
VDR inhibitor: 1%

What do the screens show for `Cc1ccc(CN(c2ccc(C(=O)N3CCOCC3)cc2)S(C)(=O)=O)cc1`?
VDR inhibitor: 2%

How did Cc1ccc(C)c(NC(=O)[C@@H]2CCCN2S(=O)(=O)c2ccccc2F)c1 do in these assays?
VDR inhibitor: 4%

What do the screens show for `CN(C)/C=C1\C=C2C(=O)c3ccccc3N2C1=O`?
VDR inhibitor: 4%

Results for CCOC(=O)c1ccc(NC(=O)CCc2ccc(CC)o2)cc1 ?
VDR inhibitor: inconclusive

How did O=c1cc(C(F)(F)F)nc(-c2ccccc2)[nH]1 do in these assays?
VDR inhibitor: -4%

What do the screens show for `CN1CCN(C(=O)C2(NC(=O)Nc3ccccc3Cl)CCCCC2)CC1`?
VDR inhibitor: -4%

How did O=C(COC(=O)CSc1ccc(F)cc1)NC1CCCCCC1 do in these assays?
VDR inhibitor: -9%

How did N#CC(=C1Nc2ccccc2N1)S(=O)(=O)c1ccccc1 do in these assays?
VDR inhibitor: 50µM*

What do the screens show for `CC(C)COc1ccc(S(=O)(=O)n2cc(F)c(=O)[nH]c2=O)cc1`?
VDR inhibitor: -8%

What do the screens show for `COc1ccc(/C=C2\CCC(C3CCCC3)C2=O)cc1Cn1cccn1` (configuration not stated)?
VDR inhibitor: -13%

How did Cc1c(CCNC(=O)Cc2ccccc2)sc2nc(-c3ccc(F)cc3)nn12 do in these assays?
VDR inhibitor: 10%

How did CC(C)c1ccc(NC(=O)CSc2nnc(-c3ccccn3)n2C)cc1 do in these assays?
VDR inhibitor: -11%

Results for C[C@H](CO)N1C[C@H](C)[C@@H](CN(C)C(=O)Nc2ccc3c(c2)OCO3)Oc2c(NC(=O)Cc3ccccc3)cccc2C1=O ?
VDR inhibitor: 3%

What do the screens show for `COC(=O)c1ccc(S(=O)(=O)N2CCCCC2)o1`?
VDR inhibitor: 10%

How did COc1ccc(-c2nc(-c3ccccn3)ncc2S(C)(=O)=O)cc1 do in these assays?
VDR inhibitor: 20%

What do the screens show for `Cc1nn(Cc2c(F)cccc2Cl)c(=O)c2ccccc12`?
VDR inhibitor: 0%

What do the screens show for `COc1ccccc1NS(=O)(=O)c1cccc(NC(=O)c2ccc3ccccc3n2)c1`?
VDR inhibitor: 4%

What do the screens show for `O=C(CSc1nc2ccccc2c(=O)n1-c1ccccc1F)NC1CC1`?
VDR inhibitor: 3%

Results for CCC1(C)NC(=O)N(CC(=O)N2N=C(c3ccccc3)CC2c2ccc(OC)cc2)C1=O (configuration not stated) ?
VDR inhibitor: 16%

How did Cc1ccc(Cl)cc1-n1ncc2c(Nc3cccc(C)c3C)ncnc21 do in these assays?
VDR inhibitor: 7%

How did O=C1CCCC2=C1C(c1ccc(O)c(Br)c1)C1=C(CCCC1=O)N2c1ccccc1 do in these assays?
VDR inhibitor: -7%

How did CN1CCN(CCCN2c3ccccc3Sc3ccc(C(F)(F)F)cc32)CC1 do in these assays?
VDR inhibitor: inconclusive

In the list so far, 9 contain two or more sulfur atoms:
How did CC(=O)c1ccc(S(=O)(=O)Nc2ccc(S(=O)(=O)N3CCCCC3)cc2)cc1 do in these assays?
VDR inhibitor: 23%

How did COCCCn1c(SCC(=O)NC2CCCC2)nnc1-c1cccs1 do in these assays?
VDR inhibitor: 14%

Results for Cc1ccc([N+](=O)[O-])cc1S(=O)(=O)Nc1cccc(S(=O)(=O)Nc2ccccc2C(=O)O)c1 ?
VDR inhibitor: -11%

Results for C=CCn1c(SC(CCO)C(=O)NCc2ccco2)nc2sc3c(c2c1=O)CCC3 (configuration not stated) ?
VDR inhibitor: -7%

What do the screens show for `CCSC1=N/C(=C\c2ccc(-c3ccccc3[N+](=O)[O-])o2)C(=O)S1`?
VDR inhibitor: -12%

What do the screens show for `Cc1ccc2nc(NC(=O)CSc3nc(=O)n(CCN(C)C)c4c3CCCC4)sc2c1`?
VDR inhibitor: -8%

Results for Cc1ccc(N2NC(C)(c3cccs3)NC2=S)cc1 (configuration not stated) ?
VDR inhibitor: inconclusive

What do the screens show for `O=S(=O)(c1ccc(-c2ccon2)s1)N1CCN(c2ccncc2)CC1`?
VDR inhibitor: 39%[activator]

How did O=C(CSC(=S)N1CCOCC1)c1cc(Br)cc(Br)c1O do in these assays?
VDR inhibitor: 12%
